Hsc70 ATP site = Hsc70 inhibitors, probe displacement, primary screen, biochemical, fluorescence polarization (AID 568) | one-dose displacement, % at 20 µM; IC50 in µM for titrated hits | 83,000 tested, under 10 active | Hsc70 fluorescence polarization, probe displacement; higher % means a stronger effect; strong numbers were not always called active | Heat shock cognate 71 kDa protein (Homo sapiens);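 active means displacement above 50% without optical interference and an IC50 on retest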;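 further: ATPase domain with a fluorescein-tagged ATP probe; 0% = vehicle and 100% = excess ADP; read after one hour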
WNV protease inh = inhibitors of WNV NS2B-NS3 protease, primary screen, biochemical, fluorogenic substrate | z-score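 (tested at a level between 10 and 100 µM)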 | Genome polyprotein (West Nile virus), P06935 | actives 0.18% (n = 65,000) | AID 577, 2007 | fluorogenic substrate Ex360/Em465; hits give low values;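 active means z-score at -3 or under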;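 further: score is relative to mean and spread of the compound wells of a plate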
Target sequence (P06935 1371-1501 limits assumed): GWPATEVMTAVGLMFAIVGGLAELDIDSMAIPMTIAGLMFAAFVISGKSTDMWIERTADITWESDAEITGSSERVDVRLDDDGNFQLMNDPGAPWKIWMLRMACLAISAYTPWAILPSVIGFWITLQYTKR
Target sequence (P06935 1502-1679 limits assumed): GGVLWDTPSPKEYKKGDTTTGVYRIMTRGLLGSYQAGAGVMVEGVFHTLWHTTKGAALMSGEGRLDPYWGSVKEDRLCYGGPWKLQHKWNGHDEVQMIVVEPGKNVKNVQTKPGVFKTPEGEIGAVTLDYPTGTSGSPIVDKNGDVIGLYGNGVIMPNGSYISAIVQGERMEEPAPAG
MT1-MMP reporter = inhibitors of MT1-MMP promoter transcription, cell-based, luciferase reporter, luminescence (AID 618); MT1-MMP promoter luciferase reporter cells, luminescence; calls from a first round at 10 µM; hits with a dose series show EC50 in µM; actives 0.62% (n = 87,000);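 active means over half of the reporter light lost at 10 µM or EC50 under 50 µM; inactive means the rest and hits that failed the dose series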;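 further: actives suppress MT1-MMP promoter-driven transcription so potencies describe inhibitors; HT1080 fibrosarcoma cells; overnight exposure; toxic or luciferase-blocking compounds were not removed from the actives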
Numbers without * were called inactive; i = inactive; x = not tested or not shown; + = active, no number. Rows are unselected; about 0.8% have a hit in one of these screens.

SMILES	Hsc70 ATP site	WNV protease inh	MT1-MMP reporter
O=C(CSc1nc2ccccc2c(=O)n1Cc1ccco1)NCc1ccccc1	-1.9%	-0.09	i
CC(=O)N1CCC2(CC1)C(C#N)=C(N)Oc1n[nH]c(C(F)(F)F)c12	1.2%	0.11	i
CC1CN(S(=O)(=O)c2ccccc2)C(C)CN1S(=O)(=O)c1ccccc1 (stereo not given)	3.5%	x	i
COC(=O)Cn1cnc2c(nnn2-c2ccc(C)cc2)c1=O	-0.8%	0.85	i
C=CCNc1nnc(-c2ccncc2)s1	3.6%	x	i
CCCC(C(=O)NC1CCCC1)N(C(=O)Cn1nnc(-c2ccc(C)o2)n1)C1CCCC1 (stereo not given)	0.6%	-1	i
CCCc1cc(=O)[nH]c(SCC(=O)CSc2nc(CCC)cc(=O)[nH]2)n1	-2.2%	1.3	i
Cc1nn(C)c(C)c1NC(=O)CCSc1nc(-c2ccco2)cc(C(F)(F)F)n1	4.2%	0.08	i
CC1=C(C(=O)NC2CCC(C)CC2)C2(CCC(C)CC2)OC1=O (stereo not given)	7.4%	0.44	i
O=C(NCCCN1CCCC1)c1cccc(N2CCCC2=O)c1	-4.1%	1.1	i
Cc1cc(C)c2c(N)c(C(=O)c3ccccc3)oc2n1	4.0%	0.32	i
COC(=O)C(C(=O)OC)=C(/C=C/C=C/N(C)C)N(C)C	-8.8%	1.2	i
CSc1sc(C)cc1C1C(C#N)=C(N)N(c2cccnc2)C2=C1C(=O)CC(C)(C)C2 (stereo not given)	-4.6%	-1.2	i
CCCCn1c(SCC(=O)Nc2nnc(CC)s2)nc2c1c(=O)n(C)c(=O)n2C	-3.1%	-0.31	i
Cc1ccc(C(=O)NCCN2CCOCC2)cc1Cl	0.5%	-0.87	i
COc1ccc(C)cc1NC(=O)CN1CCN(S(=O)(=O)c2ccc(Cl)cc2)CC1	-0.1%	-0.29	i
CN(C)C(=O)c1c(NC(=O)c2ccco2)sc2c1CCCCC2	-0.4%	x	i
Oc1ccc2[nH]cnc2c1CN1CCCCC1	-0.1%	1.2	i
Cc1cc(NS(=O)(=O)c2ccc(NC(=O)c3cnc4scc(C)n4c3=O)cc2)nc(C)n1	2.6%	-0.51	i
COc1ccc2cc(C(c3nnnn3Cc3ccccc3)N3CCCCCC3)c(=O)[nH]c2c1 (stereo not given)	-7.0%	-0.55	i
Cc1ccn2cc(-c3nonc3C)cc2c1	6.7%	0.2	i
CCN(C(=O)COC(=O)c1c(-c2ccccc2)noc1C)C1CCS(=O)(=O)C1 (stereo not given)	0.8%	-0.01	i
Cc1ccc2cc(C(c3nnnn3C3CCCC3)N3CCN(c4ccc(F)cc4)CC3)c(=O)[nH]c2c1 (stereo not given)	0.4%	-0.13	i
O=C(O)CC1C(=O)NCCN1CCCc1ccccc1 (stereo not given)	-1.0%	-0.92	i
COc1ccccc1-n1c(SCC(=O)NC(C)(C)C)nnc1-c1ccco1	-7.7%	-0.32	i
Cc1nc2nc[nH]c2cc1Br	1.0%	0.75	i
CC1(C)CC(=O)c2cn3nc(C(F)(F)F)nc3nc2C1	0.2%	x	i
CCCNC(=O)C(Cc1ccccc1)NS(=O)(=O)c1ccc2c(c1)CCC(=O)N2 (stereo not given)	4.7%	0.92	i
CCOc1ccc(N2C(=O)CC(N3CCOCC3)C2=O)cc1 (stereo not given)	1.5%	-1.9	i
COc1cc2[nH]c(=O)c(C(=O)NCCCN3CCCCC3)c(O)c2cc1OC	-6.7%	0.42	i
CCc1cc2c(-c3ccccc3)cc(=O)oc2c(CN2CCOCC2)c1O	-6.3%	-0.75	i
Cc1ccc(S(=O)(=O)c2nc(-c3ccco3)oc2SCC(=O)NCC2CCCO2)cc1 (stereo not given)	-0.1%	-0.26	i
Cc1ccc(OCC(=O)N2CCN(C(=O)c3cccnc3)CC2)cc1	2.7%	x	i
CCOC(=O)c1cnc2cc(-c3ccc(C)cc3)nn2c1-c1ccccc1	1.6%	x	i
N/C(COc1ccccc1)=N\NC(=O)c1cccnc1Oc1ccccc1	4.0%	x	i
Cc1cc(C(F)(F)F)nn1Cc1n[nH]c(=S)n1Cc1ccccc1	1.1%	x	i
COc1ccccc1C(=O)NCCc1nc2ccccc2n1C	4.1%	0.45	i
Cc1cc(C)cc(N(C(=O)Cn2nnc3ccccc32)C(C(=O)NCc2ccco2)c2ccncc2)c1 (stereo not given)	-0.7%	-0.09	i
Cc1c(C#N)c2ncnc(N)c2n1-c1ccccc1	-5.3%	-0.21	i
O=C(/C=N/O)Nc1cccnc1	-2.7%	-1.1	i

Entries shown so far with fluorine, in the order listed:
SMILES	Hsc70 ATP site	WNV protease inh	MT1-MMP reporter
CC(=O)N1CCC2(CC1)C(C#N)=C(N)Oc1n[nH]c(C(F)(F)F)c12	1.2%	0.11	i
Cc1nn(C)c(C)c1NC(=O)CCSc1nc(-c2ccco2)cc(C(F)(F)F)n1	4.2%	0.08	i
Cc1ccc2cc(C(c3nnnn3C3CCCC3)N3CCN(c4ccc(F)cc4)CC3)c(=O)[nH]c2c1 (stereo not given)	0.4%	-0.13	i
CC1(C)CC(=O)c2cn3nc(C(F)(F)F)nc3nc2C1	0.2%	x	i
Cc1cc(C(F)(F)F)nn1Cc1n[nH]c(=S)n1Cc1ccccc1	1.1%	x	i

(further entries)
SMILES	Hsc70 ATP site	WNV protease inh	MT1-MMP reporter
CN(C)c1ccc(N/C=C/C(=O)c2ccc(F)cc2)cc1	-69%	0.51	+
COc1ccc(CC2C(=O)OC(C)(C)OC2=O)cc1	3.4%	-1.1	i
COc1ccccc1N1CCN(CC(=O)Nc2cc(F)ccc2C)CC1	4.3%	-0.66	i
C/C(=N\NC(=O)c1[nH]c2c([N+](=O)[O-])cc(C)cc2c1-c1ccccc1)c1cccnc1	-3.1%	x	i
Cc1c(C(=O)N2CCN(Cc3ccccc3)CC2)sc2ncnc(N3CCOCC3)c12	-3.0%	0.22	i
O=C(CN1CCOc2ccccc21)NCc1cccs1	-5.5%	1.7	i
O=C(CCn1c(=O)oc2ccccc21)NCc1ccc2c(c1)OCO2	0.0%	-0.61	i
CC(NC(=O)CN1CCN(Cc2ccc(Cl)cc2)C1=O)c1ccc2c(c1)OCCO2 (stereo not given)	-1.9%	0.67	i
COCCCNc1nc2c([nH]1)c(=O)[nH]c(=O)n2C	-5.1%	-0.98	i
CCS(=O)(=O)N1CCN(C(=O)c2cc(OC)cc(OC)c2)CC1	1.0%	-0.08	i
CCc1nnc(NC(=O)Cc2ccc(OCc3c(C)noc3C)cc2)s1	-3.4%	0.32	i
Cc1c(Cl)cccc1NC(=O)CSc1nnc(C)n1-c1ccccc1	-1.9%	-0.32	i
O=C(O)c1cc(S(=O)(=O)NCC2CCCO2)ccc1Cl (stereo not given)	2.6%	0.98	i
CN(C)S(=O)(=O)c1cccc(COC(=O)C2=COCCO2)c1	0.9%	0.4	i
CC(C)CNC(=O)CSc1nc(-c2cccs2)cc(C(F)(F)F)n1	-4.2%	x	i
COc1ccc(C2=NOC(C(=O)NCc3ccco3)C2)cc1OC (stereo not given)	-2.6%	-0.11	i
Cc1cc(C)cc(NC(=O)CCn2ccnc2C)c1	5.8%	-0.57	i
CC(C)CNC(=O)c1noc2c1CCCC2	-1.9%	0.53	i
CCC(=O)N(Cc1ccccc1)c1ccccn1	4.5%	x	i
CCOc1cccc2c1OC1(C)CC2NC(=O)N1c1ccc(OC)cc1 (stereo not given)	-0.6%	-0.61	i

Brought forward from above: 6 compounds, followed by the next part.
SMILES	Hsc70 ATP site	WNV protease inh	MT1-MMP reporter
CC(C)CNC(=O)CSc1nc(-c2cccs2)cc(C(F)(F)F)n1	-4.2%	x	i
COc1ccc(C2=NOC(C(=O)NCc3ccco3)C2)cc1OC (stereo not given)	-2.6%	-0.11	i
Cc1cc(C)cc(NC(=O)CCn2ccnc2C)c1	5.8%	-0.57	i
CC(C)CNC(=O)c1noc2c1CCCC2	-1.9%	0.53	i
CCC(=O)N(Cc1ccccc1)c1ccccn1	4.5%	x	i
CCOc1cccc2c1OC1(C)CC2NC(=O)N1c1ccc(OC)cc1 (stereo not given)	-0.6%	-0.61	i
CCOC(=O)c1ccc(N2C(=O)CC(NC3CCN(C(=O)c4ccc(F)cc4)CC3)C2=O)cc1 (stereo not given)	0.5%	0.8	i
CC(=O)c1sc(NC(=O)C2COc3ccccc3O2)nc1C (stereo not given)	4.4%	-0.18	5.4µM*
CN1C(=O)NC(c2ccccc2)C2=C1CN(c1cccc(C(F)(F)F)c1)C2=O (stereo not given)	-6.2%	1	i
COc1ccc(OC)c(CC(NC(C)=O)C(=O)NC2CCN(c3nc(C)cc(C)c3C#N)CC2)c1 (stereo not given)	-2.1%	0.1	i
O=C(CSCc1cnn(-c2ccccc2)c1-n1cccc1)NCc1ccc2c(c1)OCO2	0.1%	-2.1	i
Cc1nc(NCC2CCCO2)[nH]c(=O)c1CCC(C)C (stereo not given)	-1.8%	-0.44	i
Cc1oc(-c2ccccc2F)nc1CN1CCC(C(=O)NCCC2=CCCCC2)CC1	2.9%	-0.17	i
CN(C(=O)C1CCOC1)c1nnc(C2CCOC2)s1 (stereo not given)	-9.7%	1.2	i
O=C1C2CC=C(Cl)CC2C(=O)N1c1ncn[nH]1 (stereo not given)	5.7%	-1.1	i
CCOC(=O)C1(P(=O)(c2ccc(Cl)cc2)c2ccc(Cl)cc2)CCC1	1.3%	x	i
CN1CCN(C(=O)C2CCCCC2C(=O)O)CC1 (stereo not given)	3.5%	-0.04	i
CCOC(=O)C(NCc1ccccc1OC)(NC(=O)CC)C(F)(F)F (stereo not given)	3.6%	x	i
Cc1cccc(C)c1NC(=O)C(c1ccccc1)N1CCC2(CC1)OCCO2 (stereo not given)	-3.3%	0.75	i
NC1=NC2(CCCCCC2)n2c(nc3ccccc32)N1	-3.2%	x	i
COc1ccc(CCNC(=O)COC(=O)c2ccc(Br)o2)cc1	0.3%	x	i
O=C1OC(Nc2ccc(Br)cn2)c2ccccc21 (stereo not given)	1.0%	0.3	i
CCc1cc2ccccc2nc1SCC(=O)Nc1cc(C)on1	-17%	2.2	i
CN(c1nc2ccccc2n2c(-c3ccco3)nnc12)S(=O)(=O)c1ccccc1	-5.5%	-0.68	i
CCN1C2=NCCCN2c2cc(C)c(C)cc21	-3.0%	-0.05	i
Cc1cc(C)c(C#N)c(Oc2ccccc2)n1	4.4%	x	i
C=CCN(CC=C)C(=O)C1CCC(C(=O)N(CC=C)CC=C)CC1 (stereo not given)	6.0%	-0.96	i
O=C1CCCc2nc(N3CCN(c4ccccc4)CC3)ncc21	-1.6%	1.2	i
CCN1CCCC1CNC(=O)C(NC(=O)C1CCC(C)CC1)C(C)C (stereo not given)	6.0%	-0.6	i
CCCNC(=O)c1cc2nc(-c3ccccc3)cc(C(F)(F)F)n2n1	-0.8%	x	i
CCOC(=O)N1CCN(Cc2c(F)cccc2F)CC1	-7.1%	x	i
Cc1ccc(C(C)C)c(OCc2nnc3n2CCCCC3)c1	-4.8%	-0.58	i
Cc1ccc(NC(=O)CSc2n[nH]c(-c3ccncc3)n2)cc1	0.1%	0.55	i
COCCCNC(=O)CCn1c(=O)c2ccccc2n(CC(=O)Nc2c(C)cccc2C)c1=O	2.6%	-1.1	i
CCCCSc1nnc([C@@H](NC(=O)OC(C)(C)C)C(C)C)o1	-7.5%	-0.36	i
O=C(CSc1nn(-c2ccc(F)cc2)c(=S)s1)N1CCN(C(=O)c2ccco2)CC1	-6.5%	-0.89	i
Cn1ncc(Cl)c1C(=O)Nc1cccc(Cl)c1	4.5%	x	i
O=C(c1ccccc1F)N1CCC(N2CCCCCC2)CC1	2.5%	-0.13	i
O=C(NCCc1ccccn1)c1cccc(S(=O)(=O)N2CCCCCC2)c1	3.5%	x	i
CCOC(=O)c1ccc(NC(=O)COC)cc1	3.5%	0.18	i
O=c1c2c3c(sc2n(CCN2CCOCC2)c(=O)n1Cc1ccco1)CCCCC3	1.0%	0.41	i
COc1cc(NC(=O)CN2CCN(c3ccccc3F)CC2)cc(OC)c1	-1.6%	-0.88	i
Cc1nc2c3cc(Cl)ccc3n(CCN3CCCCC3)c2s1	0.8%	x	i
CCOC(=O)N1CCN(CCC(=O)Nc2cccc(Br)c2)CC1	2.5%	0.6	i
CSc1nc2cc(Cl)ccc2s1	-2.8%	-0.0027	i
O=C(Nc1ccc2c(c1)OCO2)c1ccc2nc[nH]c2c1	-1.3%	x	i
O=C1CSC(=NC2CCCCC2)N1	0.2%	-1.1	i
O=C(CCN1C(=O)COc2ccccc21)NCc1cccs1	-3.0%	-1.2	i
COc1cccc(N(CC(=O)O)S(=O)(=O)c2ccccc2)c1	-6.0%	-0.01	i
COCCNS(=O)(=O)c1ccc(OCC(=O)OC)c(Cl)c1	1.6%	-0.24	i
Cc1cc(NC(=O)C2CCCCC2C(=O)O)no1 (stereo not given)	0.4%	-0.42	i
O=C(NCC(=O)N1CCN(c2ncccn2)CC1)c1cccs1	4.3%	x	i
CN(C(=O)c1cccnc1)c1nnc(-c2ccccn2)s1	3.9%	2.1	i
COc1ccccc1-c1cc(C(=O)NCCN2CCOCC2)no1	0.5%	-0.14	i

Screening results: PubChem, several laboratories
